Screening results deposited in PubChem BioAssay by National Center for Advancing Translational Sciences (NCATS).
VACV mCherry inh – vaccinia inhibition (mCherry reporter) | 310,000 tested, 0.63% active | Potency, µM (series often up to 36.5 µM), for the others: at the highest dose activity change, negative = inhibition, hits mostly inhibitors | Vaccinia virus mCherry reporter infection, fluorescence; about a quarter of the inactives have no number; active = well fitted inhibition curve with a large enough effect; inconclusive = small, poorly fitted or top-dose-only effect; inactive = no such curve, though single readings can be large or run the other way; tested in A549 cells; note: nearly all actives have a fitted effect of over 35% in size; inactives centre near -10
Vaccinia Venus – vaccinia inhibition (Venus reporter) | Vaccinia virus Venus reporter expression, fluorescence | Potency, µM (titrated, usually from 36.5 µM), without a hit: top-dose activity change, negative = inhibition, hits mostly inhibitors | 330,000 tested, 0.46% active; active means well fitted inhibition curve with a large enough effect; inconclusive means small, poorly fitted or top-dose-only effect; inactive means no such curve, though single readings can be large or run the other way; tested in A549 cells; note: nearly all actives have a fitted effect of over 30% in size; inactives centre near -10
An asterisk follows results filed as active; i = inactive; ? = inconclusive; . = not tested or not shown; [ ] = remark or other dose. % is set by controls: 0 for no effect and ±100 for the full control effect; potency is the fitted concentration of half-maximal effect.

Values run as follows: VACV mCherry inh	Vaccinia Venus
CCc1ccccc1NC(=O)NNS(=O)(=O)c1cc(C)ccc1C
  -26%	-14%
CN(Cc1ccccc1)C(=O)CC(=O)N(C)Cc1ccccc1
  -25%	-3%
CCOc1cccc(CC(=O)N2CCc3c([nH]c4ccc(OC)cc34)C2c2ccc(F)cc2)c1OCC (centres undefined)
  7%	3%
O=S(=O)(c1ccc(Cl)cc1)N1CCN(c2ncnc3sccc23)CC1
  -18%	-28%
COc1cccc(NC(=O)c2cccc3c(=O)c4c([nH]c23)CCCC4)c1
  -20%	-24%
N/C(=N\OC(=O)Cc1ccc(Cl)cc1)c1ccncc1
  -3%	-19%
CCc1nc2ccc(C(=O)N3CCN(S(=O)(=O)CC)CC3)cn2c1N(C)CCC(C)C
  11%	-2%
Cc1ccc2c(c1)C(=O)CCN2
  i	-20%
CC(=O)Nc1ccc(S(C)(=O)=O)c(C)c1
  -4%	3%
Cc1cc(Cl)cc(Br)c1OCCCNCC(C)O (centres undefined)
  i	-17%
CCc1cc(-c2n[nH]c(C)c2-c2nc3ccccc3s2)c(O)cc1OCC(=O)NN
  4%	-5%
CC(C)c1ccc(NC(=O)COC(=O)/C=C/c2cccc(Br)c2)cc1
  i	-8%
O=C(COc1ncnc2sccc12)N1CCN(C(=O)c2ccco2)CC1
  i	-9%
CCOC(=O)c1cc(-c2ccccc2)n(CCC(=O)NCCc2ccccc2)c1C
  -16%	0%
O=C(COc1ccc(F)cc1)Nc1ccc2nc(SCc3ccccc3)sc2c1
  ?	?
CCOc1cc(CNCCO)cc(Br)c1OCc1ccc(Cl)cc1Cl
  .	13µM*
Cc1ccc(C(NC(=O)N2CCCC2)C(Cl)Cl)cc1F (centres undefined)
  -1%	7%
Cc1ccc(C)c(NC(=O)c2ccc(S(=O)(=O)N(C)CC3CCCO3)cc2)c1 (centres undefined)
  -17%	-9%
CCc1ccccc1NC(=O)c1cc(S(=O)(=O)N2CCC(C)CC2)cn1C
  -2%	-10%
CC(=O)Nc1ccc(C(=O)N2CCCCC2c2cc(C(=O)Nc3ccccc3Cl)no2)cc1 (centres undefined)
  -29%	-19%
N#C/C(=C\c1ccc(O)c(O)c1)C(=O)c1ccc(O)c(O)c1
  -9%	-6%
c1cnc2c(-c3cccc4nccn34)cccc2c1
  i	-10%
COc1ccc(C(=O)NC(=S)NC2CCCCC2)cc1
  i	-2%
Cc1cc2c(NCC(C)O)ncnc2s1 (centres undefined)
  -9%	-7%
CN1OC[C@@H]2CN(Cc3cc(Cl)cc(Cl)c3)[C@H](c3cccc(-c4ccccc4)c3)C[C@@H]21
  ?	-6%
Cc1ccc(C)c(CN2C(=O)c3ccccc3Sc3ccc(C(=O)NCc4cccs4)cc32)c1
  -3%	-8%
Cc1ccc(NC(=O)c2cc(S(=O)(=O)NCCC3=CCCCC3)ccc2F)cc1C
  -24%	-24%
CCCSc1nc2sc3c(c2c(=O)[nH]1)CC(C)(CC)OC3 (centres undefined)
  -9%	-4%
NC(=O)C1CCN(C(=S)c2ccc(-c3ccc(Br)cc3)o2)CC1
  -26%	-12%
CC1CCN(c2ccc3c(c2)S(=O)(=O)c2cc(C(=O)O)ccc2C3=O)CC1
  -14%	-13%

Next part:
Values run as follows: VACV mCherry inh	Vaccinia Venus
CCOC(CCn1c(SCc2cccc([N+](=O)[O-])c2)nc2ccccc2c1=O)OCC
  -20%	-19%
CCNC(=O)NC(=O)COC(=O)CCCSc1nc2ccccc2[nH]1
  i	-8%
COc1ccc(/C=C/C(=O)Nc2cc(C(F)(F)F)ccc2Cl)cc1
  -6%	-19%
Cc1cc(NC(=O)CSc2nc(CC(C)(C)C)nc3c2c(=O)n(C)c(=O)n3C)no1
  8%	-8%
O=C1OC(/C(=C\Nc2ccccc2)[N+](=O)[O-])c2ccccc21 (centres undefined)
  -27%	-17%
CC(C)NC(=O)c1onc(CSc2ccccc2F)c1C(=O)O
  i	-18%
Cc1oc2ncnc(N3CCOCC3)c2c1C(=O)NCCc1ccccc1
  i	-8%
Cc1cc(C)c(NC(=O)CSc2nccn2-c2cccc(Cl)c2)c(C)c1
  -14%	-4%
COc1ccc(-c2nc3ccccc3c(=O)n2CCOc2ccccc2C)cc1
  i	-10%
CCN(CC)S(=O)(=O)c1cc(-c2onc(C)c2C)ccc1OC
  -17%	-11%
CC(CCC(=O)O)C1CCC2C3C(O)C[C@@H]4CC(O)CC[C@@]4(C)C3CC(O)[C@]12C (some centres undefined)
  22%	16%
CCOC(=O)[C@H]1[C@H]2COc3cc(OC)ccc3[C@@H]2N2C(=O)c3ccc(C)cc3NC(=O)[C@@]12C
  8%	-8%
CC(C)(C)C(=O)c1cnc(Nc2ccccc2Cl)s1
  -14%[1.46 µM]	-21%
COCCn1ccc2c(OCC(=O)NCc3ccc(C)cc3)cccc2c1=O
  -12%	-12%
COc1ccc2ccc3c(c2c1)N=C[C@]1(O3)N(C)c2ccccc2C1(C)C
  -10%	-7%
Cc1ccc(S(=O)(=O)NC(=O)c2ccc(-c3ccc(C)c4ccccc34)o2)cc1
  -14%	-14%
CC1CCCCN1CC(O)COCc1ccc(Cl)cc1 (centres undefined)
  ?	17%
Cc1cccnc1CCNC(=O)C1CCC(=O)N(Cc2cccc(F)c2)C1 (centres undefined)
  -12%	-2%
CC(C)(O)C#Cc1ccc(N2C(c3ccsc3)=Cc3ccc(F)cc3C2c2c[nH]c3ccccc23)cc1 (centres undefined)
  23%	-1%
Cc1[nH]c2ccccc2c1CCCNC1CCCCC1
  -16%	-11%
C[C@H](CO)N1C[C@H](C)[C@@H](CN(C)C(=O)Nc2ccc(C(F)(F)F)cc2)Oc2c(NC(=O)c3ccncc3)cccc2C1=O
  -13%	0%
Cc1cc(=O)c(C(=O)O)cn1Nc1ccc(Cl)cc1
  -19%	-8%
Cc1ccc(S(=O)(=O)N2CC3CC(C2)c2cccc(=O)n2C3)cc1 (centres undefined)
  ?	-4%
CCOc1ccc(N2CC(c3nc4ccccc4n3CCOc3ccc(OC)cc3)CC2=O)cc1 (centres undefined)
  -9%	-4%
CNC(=O)C1(C)Cc2c(-c3ccc4c(c3)OCO4)ccnc2O1 (centres undefined)
  -21%	0%
COC1OC(CO)C(O)C(O)C1O (centres undefined)
  -16%	-23%
O=C(Oc1ccc(Cl)c2ccccc12)N1CCCCC1
  .	-33%
O=C(Nc1cccc([N+](=O)[O-])c1)c1ccc2c(c1)C(=O)N(c1ccccn1)C2=O
  -4%	-12%
CCCCC1=CC2=CC(=O)C(C)(OC(=O)CC)C(=O)C2=CN1c1ccc(OC)cc1 (centres undefined)
  -2%	-20%
COC(=O)C1=C(O)/C(=C\c2ccc(CNC(=O)C(=O)Nc3ccc(C)cc3)o2)N=C1C
  .	13%

Entries of single compounds, looked up by structure.
`Cc1ccc(C)c(CN2C(=O)c3ccccc3Sc3ccc(C(=O)NCc4cccs4)cc32)c1` reads VACV mCherry inh: -3%; Vaccinia Venus: -8%
`CC(C)c1ccc(NC(=O)COC(=O)/C=C/c2cccc(Br)c2)cc1` reads VACV mCherry inh: i; Vaccinia Venus: -8%
`NC(=O)C1CCN(C(=S)c2ccc(-c3ccc(Br)cc3)o2)CC1` reads VACV mCherry inh: -26%; Vaccinia Venus: -12%

2 entries from above in a different format:
> CCOc1ccc(N2CC(c3nc4ccccc4n3CCOc3ccc(OC)cc3)CC2=O)cc1 (centres undefined)
  VACV mCherry inh: -9%
  Vaccinia Venus: -4%
> CNC(=O)C1(C)Cc2c(-c3ccc4c(c3)OCO4)ccnc2O1 (centres undefined)
  VACV mCherry inh: -21%
  Vaccinia Venus: 0%

Continued.
Values run as follows: VACV mCherry inh	Vaccinia Venus
O=C(NCc1nnc(SCC(=O)N2CCCCCC2)o1)c1ccc(F)cc1
  i	-14%
O=C(Nc1ccc(Cl)cn1)c1ccccc1SCc1ccccc1
  i	-24%
O=C(NNC(=O)C1CCC(C(=O)NNC(=O)c2cccs2)CC1)c1cccs1 (centres undefined)
  -18%	-18%
COc1cc(CC(=O)O)c(C(C)=O)cc1OC
  i	-18%
C#CCOCCOCCOCCNc1nc(N2CCN(C(=O)C([C@@H](C)O)n3cc([C@@H](N)CCCCN)nn3)CC2)nc(N2CCN(C(=O)C([C@@H](C)O)n3cc([C@@H](N)CCCCN)nn3)CC2)n1 (some centres undefined)
  i	-1%
COCCNC(=O)c1nc2c(nnn2Cc2cc(C)ccc2C)c(=O)[nH]1
  ?	?
Cc1ccc(Cl)cc1N1C(=O)N(Cc2ccc(C#N)cc2)c2ccccc2S1(=O)=O
  6%	-5%
CCOc1cc(/C=C(\C#N)C(=O)Nc2ccccc2C(=O)O)ccc1OC(=O)c1ccc(C)cc1
  i	-1%
Nc1nnc(SCc2cccnc2)s1
  -8%	-7%
O=C1NC(=O)C(=Cc2ccccc2[N+](=O)[O-])S1
  ?	-3%
CCCOP(=O)(OCCC)C(NC(=O)c1cc(OC)c(OC)c(OC)c1)c1ccccc1 (centres undefined)
  1%	6%
COCCN(C(=O)Nc1ccccc1)c1ccccc1C
  -9%	-5%
CCc1nc(Nc2ccncc2)c2oc3ccccc3c2n1
  ?	?
CCCCOc1ccc(C(=O)NCC(=O)OCCCOC(=O)CNC(=O)c2ccc(OCCCC)cc2)cc1
  -18%	?
O=C(CCC1N=C2c3ccccc3N=C(SCc3cccc(F)c3)N2C1=O)NCCc1ccccc1 (centres undefined)
  -29%	-22%
O=C(NCCCNCc1ccccc1)c1ccncc1
  -2%	-5%
O=C(C=Cc1ccccn1)c1ccccc1
  -2%	-7%
Cn1cccc1Cc1nnc(SCC(=O)N2CCCCCC2)n1-c1ccc(F)cc1
  -10%	-8%
O=S(=O)(NC1CCCCC1Nc1ccccc1)c1ccccc1 (centres undefined)
  -16%	-17%
Cc1cccc(N(C)c2cc(C)nc3nc(C)nn23)c1
  -16%	-16%
COC(=O)CN1C(=O)CSc2ccc(S(=O)(=O)Nc3cccc(Cl)c3C)cc21
  -9%	-12%
CCOC(=O)N(C)C[C@@H]1OCc2cn(nn2)CCCC(=O)N([C@@H](C)CO)C[C@H]1C
  -3%	5%
COc1ccccc1NC(=S)NCc1ccc(S(N)(=O)=O)cc1
  i	-8%
COCCNC(=O)Cn1cc(/C=C2\C(=O)NC(=O)N(c3cccc(C)c3C)C2=O)c2ccccc21
  -7%	6%
O=C(CN1CCSC1=O)N1CCN(S(=O)(=O)c2ccc(F)cc2)CC1
  -9%	-10%
CC(C)CN1CCN(Cc2cccc3nccnc23)CC1CCO (centres undefined)
  -24%	0%
CC[C@]12c3[nH]c4cc(-c5ccco5)ccc4c3CCN1C(=O)[C@@H](CC(=O)NCc1ccco1)C[C@@H]2C(=O)N1CCN(C(=O)c2ccco2)CC1
  -18%	?
COc1ccc(OC)c(NC(=O)c2csnn2)c1
  -5%	0%
Cc1ccccc1NC(=O)c1ccc(Cl)c(NC(=O)c2ccncc2)c1
  i	3%
O=C(Cn1c(=O)n2nc(-c3ccccc3)nc2c2ccccc21)Nc1ccccc1C(F)(F)F
  -3%	-4%

Remaining list, next part:
Values run as follows: VACV mCherry inh	Vaccinia Venus
CCC(=O)NC(Cc1ccccc1)c1ccc2c(c1)OCCCO2 (centres undefined)
  -17%	-3%
Cc1ccc2c(c1)NC(=O)C(CC(=O)Nc1cc(Cl)ccc1C)O2 (centres undefined)
  -15%	-16%
CCn1c(=O)c(-[n+]2ccccc2)c(O)c2ccccc21
  -13%	-3%
CCCc1cc(=O)[nH]c(SCC(=O)N(CC(C)C)C2CCS(=O)(=O)C2)n1 (centres undefined)
  i	-18%
Cc1cccc(N2CCN(C(=O)Cc3ccc(Br)cc3)CC2)c1C
  .	-25%
O=S1(=O)c2ccc(Br)cc2N2CC[C@H](C2)N1Cc1ccc(Cl)cc1
  ?	-29%
CN(C)S(=O)(=O)c1cccc(NC(=O)/C=C/c2ccccc2[N+](=O)[O-])c1
  -22%	-2%
CCCCCCSc1ccc(-c2nc3ccc(C)cn3c2NCCCC)cc1OC
  -13%	-10%
CCOC(=O)c1cc(-c2ccccc2)n(CC(=O)Nc2ccc(OC)cc2OC)c1C
  -17%	-23%
C[N+](C)(C)CC(O)CC(=O)O (centres undefined)
  -11%	-4%
CCCC(=O)C1=C(O)C(C(=O)OC)C(C)(C)CC1=Nc1cccc2ccccc12 (centres undefined)
  .	-15%
CCc1ccc2[nH]c(=O)c(CN(CCN3CCOCC3)C(=O)Nc3ccccc3F)cc2c1
  .	-17%
Cc1ccc(NS(=O)(=O)c2ccc(NS(=O)(=O)c3cccs3)cc2)cc1
  -3%	-6%
CCc1ccccc1NC(=O)C1CCN(C(=O)c2cccs2)CC1
  21%	4%
CCN(CC)c1ccc(/C=C2/C(=O)NC(=O)N(Cc3ccco3)C2=O)cc1
  -11%	15%
Cc1ccc(-n2nnc(-c3cccnc3Cl)n2)cc1
  i	-10%
O=C(CN1C(=O)NC2NC(=O)NC21)NN=C1CCCC1 (centres undefined)
  -14%	-14%
Cc1ccccc1OCC(=O)Nc1ccccc1CO
  .	-9%
FC(F)(F)C(F)(F)C(F)(F)c1nc2ccccc2[nH]1
  16%	5%
COc1cc(C(C#N)N2CCCCC2)ccc1O (centres undefined)
  .	-10%
O=C(CSc1nc2ccccc2[nH]1)Nc1ccc(F)c(F)c1
  -15%	-6%
COC(=O)c1c(NC(=O)C2CCCCC2)sc2c1CCN(C(C)C)C2
  -24%	-19%
